Beta2AR agonist – agonists of human beta-2 adrenergic receptor inducing internalization; Am2.2-beta2AR cells, FAP receptor internalization, flow cytometry; reference of the scale not given here; hit rate 0.43% among 340,000; response, % (no concentration beside the values); P07550;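 active means response above a set limit, near 3 SD of response in nonfluorescent compounds, cut at about 42% in these data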;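 further: stock transfer was 100 nL into about 11 µL; a reference agonist was the positive control; negative values mostly stem from fluorescent compounds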
Target sequence (P07550 whole entry, looked up): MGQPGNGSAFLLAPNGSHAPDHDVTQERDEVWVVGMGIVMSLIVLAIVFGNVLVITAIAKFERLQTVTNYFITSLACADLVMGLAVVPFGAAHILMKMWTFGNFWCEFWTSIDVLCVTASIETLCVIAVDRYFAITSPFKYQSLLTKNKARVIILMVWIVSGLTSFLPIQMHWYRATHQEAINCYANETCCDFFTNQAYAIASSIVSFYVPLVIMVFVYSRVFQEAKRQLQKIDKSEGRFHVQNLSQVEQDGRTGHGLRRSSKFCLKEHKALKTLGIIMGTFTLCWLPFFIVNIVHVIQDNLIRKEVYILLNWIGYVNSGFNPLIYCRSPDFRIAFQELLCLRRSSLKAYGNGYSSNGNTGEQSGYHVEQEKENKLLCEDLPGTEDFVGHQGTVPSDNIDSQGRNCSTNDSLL
ALR inh – human ALR oxidase inhibition via reduced H2O2. P55789. purified ALR, DTT oxidation, H2O2 HRP-luminol luminescence. inhibition, % (no concentration beside the values). hit rate 3.8% among 290,000;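 active means mean and each replicate at 75% or more; inconclusive means only one of the two met; inactive means neither met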;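 further: stock transfer was 7.5 nL into about 7.5 µL; 0% = neutral wells and 100% = wells with inactivated enzyme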
LANA-H2A inh – blocks KSHV LANA binding to histone H2A/H2B. cell-free LANA-H2A/H2B peptide, fluorescence polarization. Q9QR71. hit rate 0.6% among 320,000. inhibition, % (concentration not given with the values); in the data active means inhibition mostly above about 10%, no sharp cut-off; inactive means mostly below about 6.7%;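 further: stock transfer was 7.5 nL into about 10 µL; 0% = median of vehicle wells and 100% = median of positive control wells; one replicate is shown; the record names a cut of 25% in any replicate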
E coli growth – inhibitors of Escherichia coli growth; OD600 absorbance (concentration not given with the values); OD600, 23 h; active compounds read low; hit rate 0.21% among 330,000;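 active means OD600 absorbance below the run mean of sample wells minus 3.6 SD, in any replicate, cut at about 0.56 in these data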;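 further: stock transfer was 300 nL into about 60 µL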
HNF4A DNA FP – change in binding of human HNF4 alpha to DNA | P41235 | HNF4a-FITC DNA binding, fluorescence polarization, 1 h | activity change, % at 10 µM | hit rate 0.3% among 360,000 | AID 1224865; in the data active means activity change above about 30%, passing the limit was not always enough;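 further: controls were the assay level and a saturating level of protein; the project sought stronger binding though the title names inhibitors; some compounds called inactive have numbers as strong as hits; positive values seem to mean higher polarization but the record does not say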
Target sequence (P41235 whole entry, looked up): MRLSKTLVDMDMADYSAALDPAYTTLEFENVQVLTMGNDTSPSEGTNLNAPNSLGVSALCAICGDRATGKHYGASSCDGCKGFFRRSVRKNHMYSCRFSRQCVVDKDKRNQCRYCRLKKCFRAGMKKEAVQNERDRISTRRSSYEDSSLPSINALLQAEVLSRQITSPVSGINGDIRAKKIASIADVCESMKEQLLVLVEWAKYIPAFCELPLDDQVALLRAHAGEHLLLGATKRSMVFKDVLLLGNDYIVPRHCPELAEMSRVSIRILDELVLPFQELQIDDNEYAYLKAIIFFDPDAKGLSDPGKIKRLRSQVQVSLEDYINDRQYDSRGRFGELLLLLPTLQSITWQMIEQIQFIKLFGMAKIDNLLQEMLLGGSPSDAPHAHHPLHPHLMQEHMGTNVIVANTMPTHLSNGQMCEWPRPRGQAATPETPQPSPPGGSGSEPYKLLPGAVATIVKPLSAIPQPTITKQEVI
UCH37 inh – inhibitors of human deubiquitinating enzyme UCH37; purified proteasome/UCH37, Ub-AMC cleavage fluorescence; inhibition, % (test concentration not listed); hit rate 0.33% among 330,000; AID 588478;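 active means mean of two replicates above 20%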;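 further: 0% = compound-free wells with enzyme and 100% = wells lacking proteasome; stock transfer was 100 nL into about 20 µL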
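System: Proteasome-associated human UCH37 deubiquitinase; Input: 0.15 nM proteasome in added enzyme buffer; Also added: Ub-AMC substrate from 1 µM stock; Incubation: 30 min compound-proteasome preincubation then 25 min substrate reaction, room temperature; Detection: fluorescence, ex 355 nm, em 460 nm; Read-out: % inhibition of Ub-AMC cleavage fluorescence; Benchmarks: no-proteasome and no-compound wells.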
FGF22 binding – binders of recombinant human FGF22 by thermal shift; SYPRO orange fluorescence; percent of sucrose octasulfate shift, DMSO zero; hit rate 1.5% among 340,000; Q9HCT0; calls only at 9.99 µM;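 active means melting point raised past a set limit in the mean and every replicate; inconclusive means no clear call; three in four hits are not shown here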
Target sequence (Q9HCT0 whole entry, looked up): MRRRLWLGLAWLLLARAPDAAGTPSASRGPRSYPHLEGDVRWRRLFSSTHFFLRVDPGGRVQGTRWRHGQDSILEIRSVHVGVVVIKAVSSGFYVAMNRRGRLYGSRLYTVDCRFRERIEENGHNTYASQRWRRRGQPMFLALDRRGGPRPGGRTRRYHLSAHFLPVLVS
Active calls of the source: *; i = inactive; ? = inconclusive; . = not tested or not shown; & = joins results of further samples; ! = not active in a repeat.

SMILES	Beta2AR agonist	ALR inh	LANA-H2A inh	E coli growth	HNF4A DNA FP	UCH37 inh	FGF22 binding
CCOC(=O)c1ccc(-c2ccc3c(c2)CCC3)nc1C	4.5	-4.1	-0.4	0.686	1.4	3.1	i
CCn1cc(CN(C)S(=O)(=O)c2cccc([N+](=O)[O-])c2)cn1	-4.8	-37.8	3.2	0.695	4.2	2.4	.
COc1cc(C)nc(N(Cc2ccccc2)S(=O)(=O)c2ccccc2)n1	-0.4	-4.1	4.1	0.73	-2.4	-0.2	.
Cc1ccc(NC(=O)COc2ccccc2)c(NC(=O)c2ccccc2C)c1	6.8	0.1	-0.5	0.733	4.2	4.0	.
COC(=O)c1ccccc1NC(=O)c1ccccc1N(C)S(C)(=O)=O	-0.9	.	-2.8	0.804	0.7	0.8	.
Cc1cccc(C(=O)Oc2ccc(/C=N/NC(=O)c3ccc(O)cc3)cc2)c1	12.5	16.1	1.5	.	-1.4	.	i
O=C(NC1CCSc2ccccc21)c1ccc(F)c(S(=O)(=O)N2CCOCC2)c1 (stereo unspecified)	5.7	-5.4	-0.7	0.724	1.9	0.2	i
CC1=C(C(=O)Nc2ccccc2C(=O)NC2CCC(C)CC2)SCCO1 (stereo unspecified)	4.6	-6.3	1.6	0.664	0.1	0.4	i
Cc1ccc(-n2c(-c3ccncc3)nnc2-c2cccs2)cc1	9.8	-14.6	-3.3	0.695	2.9	-1.0	.
CN1C(=O)CSc2ccc(NC(=O)NCCC3=CCCCC3)cc21	17.9	-4.1	2.9	0.693	1.4	-0.5	.
CCOc1ccccc1NC(=O)COC(=O)CN(C)S(=O)(=O)c1ccc(C)cc1	-6.6	1.0	-2.2	0.665	2.3	-0.7	.
C[C@H](CO)N1C[C@H](C)[C@@H](CN(C)S(=O)(=O)c2ccccc2)Oc2ccc(NC(=O)c3ccncc3)cc2C1=O	0.0	1.6	7.3	0.748	1.1	2.0	i
Cc1cccn2cc(CNc3ccccc3)nc12	4.3	98.5*	2.2	0.607	4.3	2.6	.
O=C(Nc1ccc2c(c1)OCO2)c1cnc(Cl)c(Cl)c1	-0.3	.	.	0.683	0.8	-8.5	i
Cn1nc(-c2ccccc2)cc1NC(=O)CCCC(=O)O	-1.8	2.0	4.6	0.702	-2.2	4.2	i
Cn1ncc(C(N)=O)c1NC(=S)NC(=O)c1ccc(Br)o1	5.6	33.7	1.1	0.671	-1.2	2.7	i
CC(C)c1ccc(NC(=O)C2C3C=CC4(O3)C2C(=O)N(CCCN2CCCCC2)C4C(=O)NC2CCCCC2)cc1 (stereo unspecified)	5.0	0.2	4.0	0.702	4.4	1.1	i
CC(=O)Nc1ccc(C(=O)CSc2nnc(Cn3nnc4ccccc43)n2C)cc1	-7.5	32.9	-4.3	0.717	2.2	4.8	i
CC1(C)Oc2ccc(/C=C/C(=O)N3CCOCC3)c(O)c2C(N2CCOCC2)C1O (stereo unspecified)	.	1.4	0.6	0.681	.	-35.4	.
Cc1cc(OC(C)C(=O)NCc2ccncc2)c2c(C)cc(=O)oc2c1 (stereo unspecified)	24.4	-26.3	2.9	0.666	-3.9	-14.9	i
CC(C)(C)c1ccc2oc(=O)cc(-c3cccc(-c4ccc(C(F)(F)F)cc4)c3)c2c1	2.9	.	.	0.721	-3.1	-0.1	i
Nc1ncnc(Oc2ccccc2F)c1[N+](=O)[O-]	-7.3	4.1	-2.5	0.678	0.7	8.3	i
Cc1ccc(NC(=O)COC(=O)CCc2c[nH]c(=O)[nH]2)cc1	-13.6	74.5	0.8	0.673	-1.5	4.9	.
CSc1nnc(NC(=O)c2nc(S(=O)(=O)Cc3ccc(C)cc3)ncc2Cl)s1	28.9	8.9	-0.4	.	0.3	.	i
CCC(=O)Nc1ccc(N2CCN(Cc3ccccc3)CC2)cc1	8.2	22.8	2.3	0.646	5.4	2.9	.
O=C(Nc1cccc(-c2cccc(Cl)c2)c1)C1CCN(Cc2ccccn2)CC1	11.2	-5.7	-0.5	0.666	4.6	3.9	i
CCc1cc(=O)[nH]c(SCCc2ccccc2)n1	-3.8	-0.1	6.1	0.722	-0.4	4.4	.
O=C1C2Sc3[nH]c(=O)sc3C(c3ccccc3)C2C(=O)N1c1ccc(Cl)cc1 (stereo unspecified)	7.3	13.4	-0.1	0.683	7.0	0.7	.
O=C(O)CC1Sc2ccccc2NC1=O (stereo unspecified)	17.8	.	0.2	0.71	3.7	4.2	.
CC(=O)Nc1ccc(S(=O)(=O)NCCNc2ccccc2[N+](=O)[O-])cc1	0.9	-4.9	3.3	0.738	2.1	7.6	i

Arranged by formula weight (rising): some entries from above.
SMILES	Beta2AR agonist	ALR inh	LANA-H2A inh	E coli growth	HNF4A DNA FP	UCH37 inh	FGF22 binding
O=C(O)CC1Sc2ccccc2NC1=O (stereo unspecified)	17.8	.	0.2	0.71	3.7	4.2	.
CCc1cc(=O)[nH]c(SCCc2ccccc2)n1	-3.8	-0.1	6.1	0.722	-0.4	4.4	.
Cc1cc(OC(C)C(=O)NCc2ccncc2)c2c(C)cc(=O)oc2c1 (stereo unspecified)	24.4	-26.3	2.9	0.666	-3.9	-14.9	i
O=C(Nc1cccc(-c2cccc(Cl)c2)c1)C1CCN(Cc2ccccn2)CC1	11.2	-5.7	-0.5	0.666	4.6	3.9	i
CC(C)(C)c1ccc2oc(=O)cc(-c3cccc(-c4ccc(C(F)(F)F)cc4)c3)c2c1	2.9	.	.	0.721	-3.1	-0.1	i
CSc1nnc(NC(=O)c2nc(S(=O)(=O)Cc3ccc(C)cc3)ncc2Cl)s1	28.9	8.9	-0.4	.	0.3	.	i

Going on with the list.
SMILES	Beta2AR agonist	ALR inh	LANA-H2A inh	E coli growth	HNF4A DNA FP	UCH37 inh	FGF22 binding
Cc1ccccc1NC(=O)CSc1nc(N)c2c3c(sc2n1)CSC(C)(C)C3	-7.2	-2.8	-6.2	0.691	-1.3	-43.7	.
CCOc1c(Cl)cc(/C=C/C(=O)N(CC)CC(=O)NCc2cccs2)cc1OC	-3.2	-2.2	-1.5	0.684	3.1	-9.6	i
O=C(Nc1ccc(C(=O)N2CCCC2)cc1)C1CCC1	3.3	.	.	.	3.5	.	i
Cc1cccc(N2C(=O)c3cccnc3C2=O)c1	-5.6	1.9	0.5	0.706	3.4	4.1	.
CCOC(=O)C1CCN(c2ncnc3c2c(-c2ccccc2)cn3-c2ccccc2)CC1	5.1	-2.5	4.4	0.733	-4.4	5.0	i
CN(C)c1ccc(C(=O)n2nnc3ccccc32)cc1	4.4	3.7	0.1	0.689	-5.1	-12.4	.
Cn1ncc2c(NNC(=O)c3ccc(O)cc3)ncnc21	2.7	.	-2.6	0.688	1.0	3.5	.
COc1ccc(CNC(=O)C(=O)NCCCn2ccnc2)cc1	-0.9	27.9	-1.1	0.702	-1.6	0.5	i
CCc1ccccc1N1CSC2=C(C#N)C(c3cc(OC)c(OC)cc3OC)CC(=O)N2C1 (stereo unspecified)	-2.9	-47.4	-8.3	0.662	2.1	-0.5	.
CCN(CC(=O)NCc1ccc(F)cc1)S(=O)(=O)c1ccc(C)cc1	-6.4	-7.1	-2.9	0.663	0.9	-1.4	i
O=C(N/N=C/c1ccc(O)c2ncccc12)c1cccc(Br)c1	3.8	73.6	2.3	.	-9.7	.	i
CC(=O)c1c(OCC(=O)O)ccc2c(C)cc(=O)oc12	13.4	-0.3	-0.5	0.642	-0.8	-7.3	.
CCC(CC)Nc1ccc(C(CC(N)=O)NC(=O)c2ccccc2)cc1[N+](=O)[O-] (stereo unspecified)	-6.1	17.4	-5.0	0.676	2.8	0.3	i
CC1(C)CC(=O)c2cnc(NC(=O)CSC(=S)N3CCCCC3)nc2C1	-5.8	-5.7	-0.4	0.67	-1.7	1.7	i
O=C(O)CC(NC(=O)c1cccc(F)c1)c1ccc(OC2CCCC2)cc1 (stereo unspecified)	-14.1	1.1	0.3	0.645	3.8	4.1	i
Cc1ccccc1CSc1ncnc2ccccc12	-1.7	?	2.9	0.711	1.3	1.4	i
CC(=O)NC(Cc1c[nH]c2ccccc12)C(=O)NCc1ccc2c(c1)OCO2 (stereo unspecified)	0.7	.	0.9	0.646	1.2	1.9	.
O=C(CCC(=O)N1CCCC1)Nc1nnc(C(F)(F)F)s1	23.3	-2.7	-1.8	0.659	-1.7	0.7	.
CC(=O)OC(C(=O)N1CCOCC1)c1c(F)cccc1F (stereo unspecified)	-1.1	0.0	-4.8	0.669	5.4	1.7	i
COc1ccc(OC)c(NS(=O)(=O)c2ccc3c(c2)C(C)(C)C(=O)N3C)c1	-2.8	-126.3	-0.6	0.712	4.2	3.3	.
CC1CCCN(C(=O)C2CCN(S(=O)(=O)c3cccs3)CC2)C1 (stereo unspecified)	-4.5	.	.	0.626	-1.5	1.3	i
COc1ccc(-c2sc3ccccc3c2-c2ccc(OCCN3CCCCC3)cc2)cc1	-5.5	0.4	i	0.621	2.4	-10.8	i
O=C(NCCN1CCOCC1)c1cc(Cl)ccc1Cl	-3.8	-11.4	-0.1	0.733	2.2	-0.6	i
CCOc1cc(-c2noc(CCC(=O)NCC3CCCO3)n2)ccc1OC (stereo unspecified)	-9.2	0.8	-2.0	0.639	3.9	1.2	i
COc1ccc(NC(=O)c2ccc(S(=O)(=O)N3CCOCC3)o2)cc1	0.5	-23.1	2.6	0.667	1.4	4.9	i
Cc1ccc(NCc2nnc(SCC(=O)c3ccccc3)o2)c(C)c1	1.4	0.8	0.2	0.668	2.0	2.8	.
Cc1ccc(OCc2cc(C(=O)NC3CCCCC3)no2)cn1	-0.2	-6.4	.	0.668	-1.3	1.5	i
C=CCn1c(=O)c2ccccc2n2c(SCC(=O)/C(C#N)=C(\C)N)nnc12	65.1*!	-6.0	2.2	0.697&0.7	-2.3&0.9	1.3&2.6	i
COCc1nc(-c2cc(OC)c(OC)c(OC)c2)no1	-5.1	-28.0	2.9	0.673	1.9	-1.2	.
N=c1n(CCc2ccccc2)c2ccccc2n1Cc1ccccc1F	17.5	-5.6	1.8	0.692	-1.0	2.5	.
CN(C)CCNc1ncnc2c1cnn2-c1ccc(Cl)cc1	17.2	.	-1.6	0.683	-2.7	3.6	i
Cc1ccc(NC(=S)Nc2cccc3ccccc23)cc1	10.3	-23.5	-3.7	0.629	2.6	1.9	i
CCOC(=O)N1CCN(c2nnc(-c3ccc(C)cc3)c3ccccc23)CC1	44.9*	-11.9	5.5	0.642	1.5	5.3	i
COc1ccc2[nH]c3c(=O)n(CCCCC(=O)NCCN4CCCC4)c(=S)[nH]c3c2c1	-0.8	?	3.7	0.627	3.6	-15.8	i
O=C(COC(=O)C1CCC1)c1c[nH]c2ccccc12	2.3	-8.4	2.2	0.63	7.8	0.1	i
O=C(c1ccc(-c2cccc(C(F)(F)F)c2)o1)N1CCN(c2ccccc2)CC1	-6.8	.	.	0.705	-1.3	1.7	i
CC1(C)CN(c2ccc(Br)cc2Br)C1=O	-5.2	-6.7	6.5	0.656	11.9	-0.7	i
COc1ccc(CCN=C(N)NS(=O)(=O)c2ccc(OC)c(OC)c2)cc1OC	7.8	-5.0	-11.7	0.668	-1.8	3.1	i
Cc1onc(-c2ccccc2)c1NC(=O)N(CCC#N)Cc1cccs1	1.1	3.0	1.3	0.674	-0.5	0.7	i
Cc1c(C(=O)NC(Cc2ccccc2)c2nc3ccccc3[nH]2)cccc1[N+](=O)[O-] (stereo unspecified)	5.6	-19.8	-0.9	0.673	0.7	-0.3	i
CC1(C(=O)Nc2cccc(-n3cnnn3)c2)Cc2ccccc2C(=O)O1 (stereo unspecified)	-4.4	3.4	4.1	.	4.4	.	i
CCNC(=S)/N=C(\N)Nc1nc(C)c2cc(C)ccc2n1	-26.4	3.0	-6.7	.	22.6	.	i
COc1cccc(N=C2SC(C(=O)Nc3ccc(F)cc3)CC(=O)N2C)c1 (stereo unspecified)	7.2	-3.0	0.9	0.679	1.5	1.5	.
O=C(COc1cccc2c1CCN(Cc1ccc(Br)cc1)C2=O)NCc1ccco1	-2.2	13.9	-11.3	0.702	0.2	2.7	i

The list is partial. The share of hits here may be higher or lower than overall.
